# ALR H2O2 inh – human ALR oxidase inhibition via reduced H2O2. P55789. purified ALR, DTT oxidation, H2O2 HRP-luminol luminescence. inhibition, % (concentration not given with the values). actives 3.8% (n = 290,000). AID 485317;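 active = mean and each replicate at 75% or more; inconclusive = only one of the two met; inactive = neither met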;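 also: stock transfer was 7.5 nL into about 7.5 µL; 0% = neutral wells and 100% = wells with inactivated enzyme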
# Target sequence (P55789 whole entry, looked up): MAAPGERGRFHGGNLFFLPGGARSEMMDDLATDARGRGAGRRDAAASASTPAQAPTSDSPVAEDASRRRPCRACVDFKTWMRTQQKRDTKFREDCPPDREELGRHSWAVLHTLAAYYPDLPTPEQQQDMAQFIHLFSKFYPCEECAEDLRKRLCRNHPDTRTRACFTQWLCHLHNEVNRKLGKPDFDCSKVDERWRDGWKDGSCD
# Ecoli rRNA inh – inhibitors of bacterial rRNA selective over humanized ribosomes; E. coli WT GFP vs humanized-ribosome RFP mutants, fluorescence, 24 h; active compounds read low; DMSO median 0, no signal -100; GFP signal change (wild-type ribosome), % (concentration not given with the values); actives 1.6% (n = 350,000);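 active = significant combined selectivity score with lowered wild-type GFP, culture density cut under 30%, mutant RFP and density less affected; inactive = any of these conditions unmet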; also: one replicate is shown; some compounds called inactive have numbers as strong as hits
# RanGTP-Impb inh – disruptors of Ran-importin-beta complex formation – biochemical, FRET, CFP-Ran, YFP-importin-beta, homogeneous, primary screen; cell-free CFP-Ran/YFP-importin-beta FRET ratio; actives 1.1% (n = 300,000); inhibition, % (test concentration not listed); AID 2216;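 active = most replicates above 15%; inconclusive = exactly half above 15%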;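 also: 0% = DMSO wells and 100% = Ran loaded with GDP instead of GTP; wells of about 40 µL received 100 nL stock; the first replicate is given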
# FGF22 binding – FGF22 (human) thermal shift binding | calls only at 9.99 µM | actives 1.5% (n = 340,000) | Q9HCT0 | recombinant FGF22 thermal shift, SYPRO orange fluorescence; percent of sucrose octasulfate shift, DMSO zero;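 active = melting point raised past a set limit in the mean and every replicate; inconclusive = no clear call; three in four hits are not shown here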
# Target sequence (Q9HCT0 whole entry, looked up): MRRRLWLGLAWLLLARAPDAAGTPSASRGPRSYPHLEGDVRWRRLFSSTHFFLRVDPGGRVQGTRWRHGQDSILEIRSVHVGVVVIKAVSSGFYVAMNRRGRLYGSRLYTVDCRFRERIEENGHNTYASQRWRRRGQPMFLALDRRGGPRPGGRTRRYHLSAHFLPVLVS
# T cruzi repl – T. cruzi replication inhibition; T. cruzi beta-gal in NIH3T3, luminescence, 90 h; inhibition, % (test concentration not listed); actives 1.4% (n = 300,000); AID 1885;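 active = mean inhibition across valid replicates above about 55%, limit read from the data; inconclusive = mean below that limit but half or more replicates reach it; inactive = mean below it, under half of replicates reach it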;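 also: signal also drops with host cell toxicity which is not excluded here; 0% = plate median of DMSO wells and 100% = zero luminescence signal; higher percent means less beta-gal luminescence so fewer parasites; stock transfer was 50 nL into about 50 µL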
# Beta cell apopt – beta cell apoptosis inhibition; INS-1E cytokine-induced death, ATP luminescence, 48 h; percent of positive-control rescue, neutral wells zero; protection from apoptosis, % (concentration not given with the values); actives 0.8% (n = 300,000);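 active = all replicates at 75% or more, or half of them and the mean; inconclusive = half reach 75% but not the mean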;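 also: 0% = cytokine-treated negative control wells and 100% = positive control rescue; higher means more ATP so stronger rescue from cytokine killing; wells of about 40 µL received 100 nL stock; the first replicate is given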
# MLL AF4-AF9 inh – MLL-AF4/AF9 protein interaction inhibition; P42568; AlphaScreen, biotin-AF4 peptide binding to FLAG-AF9; inhibition, % at 10 µM; actives 0.47% (n = 350,000); AID 651704;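 active = every replicate reaching a set inhibition limit, whatever the replicate mean, cut at about 25% in these data; inconclusive = mean inhibition reaches that limit but some replicates miss it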;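 also: 0% = plate neutral control median and 100% = total signal loss; the record names both 10 and 1 µM as test concentration; the first replicate is given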
# Target sequence (P42568 whole entry, looked up): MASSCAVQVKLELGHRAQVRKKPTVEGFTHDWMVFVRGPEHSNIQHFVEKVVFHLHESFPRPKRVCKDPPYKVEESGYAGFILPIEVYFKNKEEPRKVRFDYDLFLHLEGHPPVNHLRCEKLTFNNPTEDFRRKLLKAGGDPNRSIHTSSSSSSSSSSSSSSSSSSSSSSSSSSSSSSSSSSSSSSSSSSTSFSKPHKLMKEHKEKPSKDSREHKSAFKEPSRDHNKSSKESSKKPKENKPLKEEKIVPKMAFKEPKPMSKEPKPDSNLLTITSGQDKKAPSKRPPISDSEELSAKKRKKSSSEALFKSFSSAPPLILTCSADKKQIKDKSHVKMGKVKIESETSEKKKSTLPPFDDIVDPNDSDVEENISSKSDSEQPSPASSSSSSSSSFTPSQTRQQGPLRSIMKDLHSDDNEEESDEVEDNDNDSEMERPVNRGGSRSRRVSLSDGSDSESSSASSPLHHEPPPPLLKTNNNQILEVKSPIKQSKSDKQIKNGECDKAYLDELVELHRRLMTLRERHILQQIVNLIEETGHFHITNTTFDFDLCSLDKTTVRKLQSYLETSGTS
# Calb FLC – affects C. albicans growth with fluconazole; C. albicans CaCi-2 (fluconazole-resistant clinical isolate) + fluconazole, Alamar Blue growth, 48 h; growth inhibition, % (concentration not given with the values); actives 0.57% (n = 300,000); AID 1979;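 active = most replicates above 75%; inconclusive = exactly half above 75%; inactive = most below 75%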;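 also: all wells also contain fluconazole at 8 µg/ml as a sub-toxic cotreatment; 0% = median of DMSO wells and 100% = median of geldanamycin control wells; wells of about 8 µL received 7.5 nL stock; the first replicate is given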
# Ecoli rRNA inh OD600 – recorded beside Ecoli rRNA inh, whose call it bears; OD600 change, %; measured here: OD600 growth;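 optical density of the mix in the first replicate; 0 = DMSO median and -100 = no signal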
# Ecoli rRNA inh RFP – further read-out of Ecoli rRNA inh, marked with its call; RFP signal change, %; measured here: RFP humanized mutant strains;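 first replicate; 0 = DMSO median and -100 = no signal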
# * = called active by the depositor; i = inactive; ? = inconclusive; . = no result given.
SMILES,ALR H2O2 inh,Ecoli rRNA inh,Ecoli rRNA inh OD600,Ecoli rRNA inh RFP,RanGTP-Impb inh,FGF22 binding,T cruzi repl,Beta cell apopt,MLL AF4-AF9 inh,Calb FLC
O=C(c1cncc(Br)c1)N1CCN(c2ccc(N3CCOCC3)nn2)CC1,7,3,8,-2.6,?,i,-9,-3,14,-10
CCc1c(C)sc(NC(=O)c2cc(-c3ccc(O)cc3)on2)c1C#N,-6,5,8,5.7,0.4,i,-6,-3,-5.2,-8
CCOC(=O)C1CCN(C(=S)Nc2ccc(C)cc2)CC1,-11,0,2,-2.2,2.8,i,-4,-3,-0.7,12
c1ccc(CC2CCCNC2)cc1 (stereo not drawn),-6,8,2,-0.1,-2.1,i,-21,-4,1.6,-3
CN(C)C(CNC(=O)c1ccc(OCc2cn3ccccc3n2)cc1)c1ccco1 (stereo not drawn),-1,2,-7,-0.2,.,i,.,0,0.3,.
CCOc1ccccc1NC(=O)COC(=O)CC(C)(C)CC1=NS(=O)(=O)c2ccccc2N1,4,-1,-16,3.6,-0.4,i,7,-8,-2.0,-15
O=C(O)CCn1c(Cc2ccccc2)nc2ccccc21,-18,0,4,-1.8,-0.5,i,-11,-6,1.5,7
CC(=O)NNC(=O)CCn1nnc(-c2ccc(Cl)cc2)n1,-7,1,-1,-4.6,5.8,i,15,-7,-1.6,-13
COc1ccc(NC(=O)CSc2ccc(-c3ccco3)nn2)c(OC)c1,0,-9,-1,3.7,2.6,i,0,-9,-15,7
CC1CCCN(Cc2c(O)ccc3c(=O)c(-c4nc5ccccc5s4)c(N)oc23)C1 (stereo not drawn),39,.,.,.,2.6,.,42,27,.,81*
c1ccc(-c2cnnc(N3CCOCC3)n2)cc1,.,.,.,.,7.4,.,7,0,.,-4
Cc1ccc(C(=O)Nc2cccc(-c3nc4ncccc4o3)c2)cc1,-6,3,0,1.4,-2.2,i,-4,4,.,4
CCCCOC(=O)NC(NCC(O)c1ccccc1)(C(F)(F)F)C(F)(F)F (stereo not drawn),0,.,.,.,3.5,.,-6,3,.,-5
COC(=O)CC/C(O)=C1\C(=O)CC(C)(C)CC1=Nc1ccccc1OC,2,.,.,.,-1.5,.,6,-1,.,10
CCN(CC)c1ccc(/C=N\NC(=O)c2cccc3cc[nH]c23)cc1,2,.,.,.,1.7,i,-3,-16,3.1,8
CSc1ccc(Cn2nnc(C(=O)NCCc3ccc(Cl)cc3)c2N)cc1,.,1,0,-5.0,1.0,i,14,-4,3.8,?
Cc1cc(C)c2c(=O)n(CC(=O)NCCCN3CCN(c4ccccc4F)CC3)sc2n1,.,.,.,.,6.1,.,44,-2,.,-1
CCOP(=O)(c1ccccc1)c1nc(-c2ccc(F)cc2)oc1N1CCCCC1 (stereo not drawn),-8,.,.,.,-3.3,.,.,12,.,-8
Cc1nnc(SC(=O)N2c3ccccc3Sc3ccccc32)s1,-18,.,.,.,1.7,.,8,-12,.,3
Nc1nc(-c2ccccc2)c(-c2ccccc2)o1,.,-32,-34,-5.2,1.4,i,-6,-9,-3.8,0
COc1ccc2c(c1OC)C(=O)OC2N1C(=O)CC[C@H]1C(=O)NCC1CCCO1 (stereo partly drawn),-14,.,.,.,0.4,i,4,-11,8.2,-2
COc1ccc(CC(=O)O/N=C(\N)Cc2cccc3ccccc23)cc1,-20,4,4,2.4,-7.0,i,-2,-1,-4.1,12
CCCCC(=O)Nc1nc(-c2ccc(S(=O)(=O)N3CCOCC3)cc2)cs1,-9,-14,-14,-2.2,.,i,11,16,-1.0,.
COCCCNc1nc2c(c(=O)[nH]c(=O)n2C)n1CC(O)COc1ccccc1 (stereo not drawn),12,.,.,.,-4.7,.,-7,-2,.,3
Cc1cc(NC(=O)CSc2nnc(-c3ccc4c(c3)OCCO4)o2)no1,-4,.,.,.,?,.,-2,8,.,0
# Other records:
SMILES,ALR H2O2 inh,Ecoli rRNA inh,Ecoli rRNA inh OD600,Ecoli rRNA inh RFP,RanGTP-Impb inh,FGF22 binding,T cruzi repl,Beta cell apopt,MLL AF4-AF9 inh,Calb FLC
Cc1ccc(C(=O)N2CCN(c3ncnc4c(-c5ccccc5)nsc34)CC2)cc1,-2,.,.,.,0.5,.,8,-4,.,26
COCCCNC(=O)CC1C(=O)N(Cc2ccccc2)C(C)c2nc3ccccc3n21 (stereo not drawn),-12,4,17,1.7,.,i,-5,-6,-9.2,-11
O=C(COc1ccc([N+](=O)[O-])cc1)NCc1ccncc1,-3,23,15,1.6,-2.5,i,-5,-2,-1.2,0
O=C(CNC(=O)c1ccccc1)OCC(=O)c1ccccc1Cl,-3,1,2,0.9,3.4,i,-4,-6,-2.8,4
Cc1cc2c(cc1C)NC1=C(N2)OC(c2cccc(O)c2)C1=O (stereo not drawn),16,3,11,0.4,?,i,-3,-4,0.3,44
CCOC(=O)c1ccc(-n2c(CCC(=O)O)ccc2-c2ccc(F)cc2)cc1,11,-5,-11,13,0.9,i,3,0,0.4,-1
O=[N+]([O-])c1cc(Cl)ccc1-c1nc(-c2ccccc2)no1,-32,.,.,.,-1.0,.,4,-3,.,12
COCCNC(=O)CN(C(=O)CCC(=O)Nc1cc(C)on1)c1ccc(C)cc1C,-2,.,.,.,3.1,.,-8,-4,.,?
O=C(CN1CCCc2ccccc21)N/N=C/c1ccccc1,23,.,.,.,1.0,i,18,-8,-2.3,1
Cc1[nH]c2ccccc2c1C(=O)COC(=O)C(C)C,1,.,.,.,-0.4,.,3,-2,.,43
O=C(O)CCc1ccc(-c2ccccc2)n1-c1cccc(O)c1,52,-14,-1,12,-1.7,.,-3,-5,-0.3,4
COc1cccc(S(=O)(=O)Nc2cccc(C(=O)N3CCCC3)c2)c1,-6,10,8,-0.1,-1.3,i,-7,-3,-1.4,2
COc1ccnc(Oc2ccc(C)cc2)c1C#N,7,.,.,.,-2.5,.,-8,-7,.,-7
COc1cc(C(=O)Nc2ccc(-c3nc4cc(C)ccc4o3)c(O)c2)cc(OC)c1OC,-11,.,.,.,-0.2,.,6,28,.,3
COc1cc2cc(CN(CCCN3CCOCC3)C(=O)Nc3ccc(F)cc3)c(=O)[nH]c2cc1OC,-3,8,-9,-5.3,?,i,-16,-2,-6.1,21
O=[N+]([O-])c1ccc(N/N=C/c2ccc(OCc3cccc4ccccc34)cc2)nc1,11,-7,-7,4.5,-3.2,i,49,11,1.4,18
C#CCn1c(O)c(N=NC(=O)C(O)c2ccccc2)c2ccccc21 (stereo not drawn),0,4,2,6.2,-2.7,i,-8,-3,-17,-2
O=C(c1ccccc1F)N1CCN(C(=O)C2CC2)CC1,-1,.,.,.,1.6,i,-9,.,-3.5,7
C/C(Cn1nnc([N+](=O)[O-])n1)=N\NC(=O)c1ccncc1,.,14,13,-1.1,2.0,i,57*,-3,-1.0,25
O=C(O)COc1c(-c2ccco2)oc2ccccc2c1=O,-12,11,-1,3.8,2.4,i,-9,0,-3.0,-4
COC(=O)CNC(=O)C1CCN(C(=O)OCc2ccccc2)CC1,0,.,.,.,-1.2,.,-1,-8,.,-1
CC(=O)Cc1nsc(NC(=O)c2cc(-c3ccccc3Cl)oc2C)n1,-5,-8,-18,24,1.4,i,8,-3,5.3,1
CC1CC(C)CN(CCCNC(=O)C2CCCN(c3ncnc4c3nc3n4CCCCC3)C2)C1 (stereo not drawn),-26,3,5,-1.9,-2.9,i,22,-11,0.9,-3
O=C(NCCc1ccccc1)C1CCN(C(=O)NCc2ccccc2)CC1,-14,.,.,.,-3.3,.,-4,-6,.,-1
CC(C)CC(=O)NS(=O)(=O)c1ccc(N)cc1,9,.,.,.,0.6,.,-15,1,.,-10
# Next section:
SMILES,ALR H2O2 inh,Ecoli rRNA inh,Ecoli rRNA inh OD600,Ecoli rRNA inh RFP,RanGTP-Impb inh,FGF22 binding,T cruzi repl,Beta cell apopt,MLL AF4-AF9 inh,Calb FLC
O=C(Nc1ccc(F)cc1)c1cncs1,3,-12,-6,-10.0,-3.8,i,-8,.,0.3,3
Cn1c(=O)c(=O)n(C)c2cc(S(=O)(=O)N3CC(=O)N(CCc4ccccc4)C(=O)C3)ccc21,-2,10,10,-6.3,-6.2,i,-8,-4,0.5,2
COc1cc(/C=N/NC(=O)CCN2CCN(Cc3ccccc3)CC2)cc(OC)c1OC,.,.,.,.,1.2,.,5,-4,.,1
CCN1c2cccc3cccc(c23)S1(=O)=O,-19,.,.,.,-4.9,.,-6,8,.,8
CSc1ccccc1-c1nnc(-c2ccc(C)cc2)o1,11,.,.,.,-3.1,.,2,6,.,-2
CCOC(=O)C(C)NC(=O)Cn1ncc2c(=O)oc3ccc(C)cc3c21 (stereo not drawn),-2,10,10,-3.7,6.5,i,-13,-3,0.8,3
Cc1cc(C)c(C)c(S(=O)(=O)N2CCC(C(=O)Nc3ccc(S(=O)(=O)N4CCOCC4)cc3)CC2)c1C,-2,-2,-4,-0.4,1.7,i,27,35,-0.8,8
CN(C)C(=O)c1cn(-c2ccccc2)nc1-c1cccc([N+](=O)[O-])c1,-4,8,9,-0.2,-2.6,i,0,-7,0.6,?
CC(=O)c1cccc(NC(=O)C(C)N(C)CC(=O)Nc2ccc(Cl)cc2)c1 (stereo not drawn),.,-18,-15,-2.7,-5.3,i,-11,0,-7.7,-1
CCOCCOC(=O)C1=C(C)NC2=C(C(=O)CC(c3cccs3)C2)C1c1ccsc1 (stereo not drawn),-6,.,.,.,-0.1,.,24,9,.,3
CC(=O)c1ccc(N=Nc2ccc(N)cc2)cc1,42,-11,10,-4.2,-0.5,i,-12,5,20,3
COc1ccc(CC(=O)N2CCc3cc(OC)c(OC)cc3C2O)cc1OC (stereo not drawn),-5,6,8,1.2,-0.6,i,9,-1,0.2,-18
Cc1[nH]c2ccccc2c1C(=O)C(C)OC(=O)c1ccc(Cl)nc1 (stereo not drawn),.,-18,-35,2.7,1.6,i,-8,0,-9.2,-3
COc1ccc(Cn2c(C)c(C)c(C#N)c2NC(=O)Nc2cccc(Cl)c2)cc1,.,.,.,.,3.6,.,-8,5,.,-5
COc1ccc(C(=O)n2nc(C)cc2C)cc1OC,-16,.,.,.,-4.5,.,-2,-4,.,-16
Cc1nc2c(s1)sc1ccccc12,-5,.,.,.,0.6,.,-7,-1,.,-4
Cc1ccc(C(=O)OC2CCCN(C)C2)cc1 (stereo not drawn),-13,11,4,-1.7,-1.2,i,-16,2,-1.0,5
C=CCOC(=O)C1=C(C)NC(=O)NC1c1ccc2c(c1)OCO2 (stereo not drawn),-12,0,3,-0.9,-2.8,i,-3,-5,-5.4,-1
CN([C@@H](C(=O)OC(C)(C)C)c1ccccc1)S(=O)(=O)c1cccc(S(=O)(=O)N(C)[C@@H](C(=O)OC(C)(C)C)c2ccccc2)c1,5,4,2,-4.6,0.3,i,-27,4,-0.4,-6
COc1ccc(CN2CCNC(=O)C2CC(=O)N(C)CCC2CCOCC2)c(OC)c1 (stereo not drawn),-6,2,8,-1.3,?,i,4,-4,1.0,8

# Screening data: PubChem, Broad Institute

# A portion of the library (hit frequency here may not be typical).
